Compound activity as filed in PubChem.
PrP UTR inh = suppresses PrP 5' UTR mRNA reporter expression; AID 488862; cell-based PrP 5' UTR mRNA reporter, plate reader; 340,000 tested, 0.35% active; inhibition, % (test concentration not listed);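 active means every replicate at 50% or more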;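 further: 0 = median of the neutral control wells; tested in H4 reporter cells; numbers are from one replicate; inactives centre near -14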
RN4220 kill = kills Staphylococcus aureus RN4220; S. aureus RN4220 growth, OD600, 16 h; inhibition, % (no concentration beside the values); 330,000 tested, 0.33% active;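 active means z-score of -3 or lower and OD600 up to 0.18 on both plates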;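 further: plate controls were untreated cells for no effect and reference antibiotic for full effect; stock transfer was 100 nL into about 80 µL; one replicate is shown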
ugtP null kill = compounds lethal to S. aureus RN4220 ugtP deletion mutant; OD600 growth, 16 h; some inactives read as strong as hits; growth inhibition, % (test concentration not listed); 330,000 tested, 0.54% active;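 active means z-score under -3 and OD600 up to 0.15 on both plates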;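 further: plate controls were untreated wells for no effect and antibiotic for full effect; wells of about 80 µL received 100 nL stock; the first replicate is given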
BJeLR lethal = BJeLR cell viability loss. BJeLR (HRASV12) viability, CellTiter-Glo ATP luminescence, 48 h; reference of the scale not given here. inhibition, % (no concentration beside the values). 300,000 tested, 0.17% active. AID 1554;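 active means replicate mean above 50%; inconclusive means above 50% but judged a plate artefact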;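 further: 50 nL library stock added to about 25 µL; numbers are from one replicate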
Bead autofluor = flagged as autofluorescent in microsphere protease counterscreen; compound autofluorescence counterscreen, microsphere flow cytometry; hits give high values; fluorescence intensity (test concentration not listed); 360,000 tested, 3.1% active; AID 624483;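 active means at least 3 SD above the mean of all compounds, about 16000 in these data; inconclusive means too few beads counted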;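 further: 100 nL of 1 mM stock went into each well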
Mtb hypoxia inh = Mtb hypoxia fluorescent reporter inhibition; fluorescence inhibition, % (test concentration not listed); 300,000 tested, 0.1% active; M. tuberculosis hypoxia-regulated fluorescent reporter, fluorescence; AID 1159583;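 active means 35 to 45% if threefold the growth effect, above 45% if 1.5-fold the growth effect; inactive means the rest, general growth blockers included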;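 further: wells of about 50 µL received 100 nL stock; 0% = vehicle wells and 100% = reference inhibitor wells; whole bacteria with a GFP reporter of the hypoxia response; strong numbers were not always called active; many hits fall short of the cut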
Mtb hypoxia inh growth = recorded beside Mtb hypoxia inh, whose call it bears; growth inhibition, %; measured here: M. tuberculosis growth (absorbance);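 0% = vehicle and 100% = reference antibiotic; read after six days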
* = called active by the depositor; ? = inconclusive; / = no result given; & = joins results of further samples.

Start of the data: the first six entries, ahead of the listing:
SMILES	PrP UTR inh	RN4220 kill	ugtP null kill	BJeLR lethal	Bead autofluor	Mtb hypoxia inh	Mtb hypoxia inh growth
CCOc1cc(CNCCc2ccc(S(N)(=O)=O)cc2)ccc1OCc1ccccc1	-19	0.8	3	18	22507*	7	11
Cc1[nH]c2ccccc2c1C(=O)C(=O)N1CCN(C)CC1	-13	0.4	-2	21	4427	-3	-3
CC(=O)N1N=C(c2cccc(NS(C)(=O)=O)c2)CC1c1ccc2c(c1)OCO2 (stereo not given)	-30	2.2	4	1	4227	2	1
Cc1ccc(C)n1-c1nn(S(=O)(=O)c2cccc(C(F)(F)F)c2)c2cccc(F)c12	-21	-9.4	1	-8	5948	1	2
Cc1cccc(NC(=S)NN=Cc2c[nH]c3ccccc23)c1	/	-5.3	2	/	/	2	6
CCOC(=O)N1CCN(C(=O)CN(Cc2ccccc2)S(=O)(=O)c2ccc(OC)c(Cl)c2)CC1	-9	3.7	0	5	10809	6	8

The listing (from the top)
SMILES	PrP UTR inh	RN4220 kill	ugtP null kill	BJeLR lethal	Bead autofluor	Mtb hypoxia inh	Mtb hypoxia inh growth
CCOc1cc(CNCCc2ccc(S(N)(=O)=O)cc2)ccc1OCc1ccccc1	-19	0.8	3	18	22507*	7	11
Cc1[nH]c2ccccc2c1C(=O)C(=O)N1CCN(C)CC1	-13	0.4	-2	21	4427	-3	-3
CC(=O)N1N=C(c2cccc(NS(C)(=O)=O)c2)CC1c1ccc2c(c1)OCO2 (stereo not given)	-30	2.2	4	1	4227	2	1
Cc1ccc(C)n1-c1nn(S(=O)(=O)c2cccc(C(F)(F)F)c2)c2cccc(F)c12	-21	-9.4	1	-8	5948	1	2
Cc1cccc(NC(=S)NN=Cc2c[nH]c3ccccc23)c1	/	-5.3	2	/	/	2	6
CCOC(=O)N1CCN(C(=O)CN(Cc2ccccc2)S(=O)(=O)c2ccc(OC)c(Cl)c2)CC1	-9	3.7	0	5	10809	6	8
CCOC(=O)C1(Cc2cccc(OC)c2)CCCN(C(=O)c2cc(CC(C)C)[nH]n2)C1 (stereo not given)	-47	-4.3	-9	6	4785	-1	-3
Nc1nc(NCc2ccco2)nc(Nc2cccc(F)c2)c1[N+](=O)[O-]	-6	4.2	-3	7	/	-1	2
Cn1c(NC(=O)c2ccccc2NC(=O)C(C)(C)C)nc2ccccc21	-14	-3.6	13	0	5706	-14	-12
O=C(CCn1c(=O)oc2ccccc21)Nc1ccccc1	-5	3.2	-3	-4	10601	6	-1
CCOC(=O)/C(C#N)=C/c1c(N2CCCCCC2)nc2ccccn2c1=O	-11	6.0	7	-2	3044	5	-3
CC(=NNC(=O)c1ccc(-c2ccccc2)cc1)c1cc(O)cc(O)c1	/	1.3	0	/	/	1	5
COC(=O)c1ccc(-n2nnnc2SCc2nn[nH]n2)cc1	-7	4.2	3	-4	8615	3	8
COc1cccc(CN2CC(C(=O)NCCC3=CCCCC3)CCC2=O)c1 (stereo not given)	-5	-0.3	0	-7	4918	8	-2
COc1cccc(NC(=O)COC(=O)CNC(=O)C2CCCCC2)c1	0	1.6	3	/	?	3	0
C/C(=N\NC(=O)Cc1ccccc1[N+](=O)[O-])c1cccnc1	-14	/	/	0	5614	/	/
COc1ccc(Nc2c(-c3ccco3)nc3ccc(C)cn23)cc1	/	6.7	21	7	4830	11	11
CCOC(=O)c1[nH]c(C)c(C(=O)N2CCOCC2)c1C	-20	-3.2	-4	2	5389	/	/
Cc1ccc2nc(-c3ccc(NC(=O)CCS(=O)(=O)c4ccccc4)cc3)sc2c1	13	2.5	-15	-1	2435	7	-2
CCN(C(=O)COC(=O)CCOc1ccc(C(C)(C)C)cc1)c1c(N)n(Cc2ccccc2)c(=O)[nH]c1=O	-5	9.3	8	/	3246	11	4
O=C1CC2(CCN(C(=O)c3ccc([N+](=O)[O-])cc3)CC2)Oc2ccccc21	2	1.8	-2	-8	?	-4	5
COc1ccc(CN(C)CC(=O)Nc2c(C)cccc2C)c(OC)c1	-5	1.3	1	3	3354	9	10
COc1ccc(Cc2nnc(NC(=O)C3CCCO3)s2)cc1 (stereo not given)	-24	4.1	2	-4	4393	13	11
Cc1cccc(OCC(O)Cn2c(=N)n(CCN3CCOCC3)c3ccccc32)c1 (stereo not given)	5	-2.5	3	1	9553	6	5
O=C(COC(=O)c1n[nH]c2ccccc12)NCCc1ccc(Cl)cc1	-5	-2.4	-7	/	8782	8	8
CCN(CC)C(=O)c1nc[nH]c1C(=O)O[C@@H](C)c1ccccc1	-13	-7.4	-3	/	3901	7	7
CCOc1ccc(C(=O)Nc2ccc(NC(=O)c3ccco3)c(Cl)c2)cc1Br	-7	3.2	-4	24	22914*	-3	-2
COC(=O)C1=C(c2cc3ccccc3s2)C[C@@H]2CC[C@H]1N2C(=O)NCc1ccc(F)cc1	-23	-12	-9	-1	3982	6	5
COc1cccc(CNC(=O)C2CCCN(S(=O)(=O)c3ccc4c(c3)C(C)(C)C(=O)N4C)C2)c1 (stereo not given)	-19	1.7	10	8	5221	6	-1
O=C(CNC(=O)c1ccccc1)N=Nc1c(O)[nH]c2ccc(Br)cc12	-11	2.4	-19	4	5229	-3	9
COc1ccc(CCNC(=O)C2CCN(C(=O)c3ccc(C(C)(C)C)cc3)CC2)cc1	-27	-1.7	0	3	4217	3	12
Cc1ccc(S(=O)(=O)N(CC(=O)O)Cc2ccccc2F)cc1	-7	6.7	1	1	10610	1	5
CCN(Cc1nc(-c2ccc(OC)cc2)no1)C(=O)c1ccoc1C	0	4.7	0	-4	5939	-1	1
O=C(Nc1ccc(N2CCN(C(=O)c3ccco3)CC2)cc1)c1ccc([N+](=O)[O-])cc1Cl	1	4.1	5	-10	5709	5	9
O=P(c1ccccc1)(c1ccccc1)C(O)c1ccccn1 (stereo not given)	-9	-1.4	0	1	3563	4	-4
CC(=O)Nc1ccc(NC(=O)CN(c2ccc(C34CC5CC(CC(C5)C3)C4)cc2)S(C)(=O)=O)cc1	4	4.6	3	7	11189	6	-1
O=C(O)CC/C(=N\Nc1ccc([N+](=O)[O-])cc1S(=O)(=O)N1CCOCC1)c1cccs1	-20	/	/	-2	5186	/	/
CCn1cc(S(=O)(=O)c2ccccc2)c(=O)c2cc(F)c(N3CCN(C)CC3)cc21	-24	2.5	12	-6	6415	5	-7
O=C(Nc1cccnc1)c1cc(Br)c(Br)s1	-12	-2.2	-3	-6	5777	2	0
CCCCOC(=O)c1ccc(N=Nc2c(C)c(C#N)c(O)[nH]c2=O)cc1	-28	4.6	-4	3	4441	-10	5
Cc1[nH]nc(N=CC2=C(O)CC(C)(C)CC2=O)c1-c1ccccc1	-31&-17	4.2&4.0	6&4	-3	4232&5874	7&-2	-12&1
Cc1occc1-c1nnc(SCC(=O)Nc2ccccc2)n1C(C)c1ccccc1 (stereo not given)	-10	4.5	0	-7	4463	/	/
Cc1[nH]c(C)c(S(=O)(=O)NCC(C)c2ccccc2)c1C(=O)N1CCCCC1 (stereo not given)	6	4.7	6	19	5622	13	2
Cc1cc(C)cc(N2CCCn3c2nc2c3c(=O)[nH]c(=O)n2C)c1	6	4.8	5	-6	3222	-14	-6
O=C(CSc1nc2ccccc2s1)NCCCN1CCOCC1	-21	6.6	-1	3	7247	-2	4
O=C(NCCC1CC1(Cl)Cl)c1ccc([N+](=O)[O-])cc1 (stereo not given)	/	4.1	12	4	3493	/	/
CCOc1ccc2[nH]c3nc(SCC(=O)NC4CC4)nnc3c2c1	-24	-2.6	-1	-11	3752	4	-5
O=C1NC(=O)/C(=C\c2ccc(OCc3cccc(C(=O)O)c3)c(Cl)c2)N1	-2	3.3	-1	0	2126	4	-4
COc1ccccc1Nc1nnc(SCc2nnc(-c3cc(OC)c(OC)c(OC)c3)o2)s1	-23	-0.2	-13	-16	2432	5	2
CCOC(=O)Cn1cnc(C)c1	-12	4.8	-2	/	4027	4	0
CCc1cccc2c1Sc1ccccc1CC2N1CCNCC1 (stereo not given)	-10	-3.2	-25	3	4721	15	20
CCOC(=O)C1CCN(c2c(NCc3ccc(C(=O)NCCC(C)C)cc3)c(=O)c2=O)CC1	-13	-9.4	8	3	2906	/	/
Cc1ccc(C(=O)N2c3ccccc3CC2C)o1 (stereo not given)	-17	-1.3	-1	12	3961	-6	-7
COc1ccc(CCNC(=O)c2ccccc2-c2ccccc2C(=O)O)cc1OC	-31	-1.8	13	-1	3959	/	/
Cc1cc(C)nc(NC(=O)c2ccc(C)c([N+](=O)[O-])c2)n1	-160	0.5	4	-7	2622	/	/
CCOC(=O)Nc1ccc2c(c1)N(C(=O)CN1CCN(C)CC1)c1ccccc1S2	-18	3.3	2	-3	9970	5	15
Cc1nnc(SCC(=O)N2N=C(c3ccc(Cl)cc3)CC2c2ccco2)[nH]c1=O (stereo not given)	-1	-8.0	4	-1	5260	8	-1
COCCn1c(=N)c(C(=O)NCCc2ccccc2)cc2c(=O)n3cccc(C)c3nc21	-29	14	1	8	3116	-7	8
Cc1cc(C(F)(F)F)n2nc(-c3cccs3)cc2n1	-52	3.8	4	-7	4052	-11	4
Cc1cc(=O)[nH]c(SCC(=O)NCc2ccc3c(c2)OCO3)n1	-10	0.1	1	-7	2880	-4	-4
More compounds.
SMILES	PrP UTR inh	RN4220 kill	ugtP null kill	BJeLR lethal	Bead autofluor	Mtb hypoxia inh	Mtb hypoxia inh growth
Cc1cccc(N(Cc2ccccc2)C(=O)c2cc(S(=O)(=O)N3CCOCC3)ccc2F)c1	1	2.6	2	1	/	-4	6
C=CCSc1nncn1/N=C/c1ccc(OC)cc1	-91	/	/	6	4171	/	/
Cc1cc(OCCCn2ccnc2)ccc1C(C)C	-17	8.3	0	-8	2024	/	/
Nc1ccc(CC2SC(=O)NC2=O)cc1 (stereo not given)	-14	-0.5	8	-13	4646	/	/
COc1ccccc1C(=O)Nc1ccnn1C1CCN(Cc2cn(C)c3ccccc23)CC1	-7	0.7	-8	13	4318	9	2
S=c1[nH]nc(CN2CCCCC2)n1Cc1ccccc1	-25	4.1	20	-2	3739	7	6
CCC1CN(S(=O)(=O)c2ccc3c(c2)NC(=O)CC(=O)N3)c2cc(Cl)ccc2O1 (stereo not given)	4	4.6	6	8	5917	/	/
Cc1nn(-c2cccc(Cl)c2)c2nc(C(F)(F)F)[nH]c(=O)c12	-31	/	/	-4	2458	/	/
C=CCNS(=O)(=O)c1ccc2nsnc2c1	-4	6.4	5	15	13177	9	8
CCC(C)NC(=O)C(Cc1ccccc1)NS(=O)(=O)c1ccc2c(c1)oc(=O)n2C (stereo not given)	-3	0.7	1	-4	5794	-1	3
COc1ccc(OC)c(C2N(c3ccc(Cl)cc3)C(=O)C3CCCN32)c1 (stereo not given)	-19	-0.1	-4	-10	6469	3	3
CCN(c1ccc(OC)cc1)S(=O)(=O)c1ccc(-c2cc(C)no2)s1	-37	8.3	-10	8	5764	0	8
CCOC(=O)C1C(c2cccs2)NC(=O)N(C)C1(O)C(F)(F)F (stereo not given)	-21	0.1	0	3	4732	/	/
O=C(Nc1ccc2nc3n(c(=O)c2c1)CCCC3)c1ccc(Cl)nc1	-27	2.0	4	4	6491	/	/
O=C(Nc1ccc(Cl)cc1)Nc1ccc2c(c1)OCO2	-96	0.0	-1	-12	6688	-5	0
O=C(CN(CCc1ccccc1)C(=O)Cn1nnc(-c2cccs2)n1)NCc1ccco1	3	1.8	8	-4	9108	-6	-2
Cc1ccc(-n2ncc3c(=O)n(CC(=O)N4CCCc5ccccc54)cnc32)cc1C	-34	-15	-1	2	2939	6	14
CCC1SC2=NC(C)=C(C(=O)OCCOC)C(/C=C/c3ccccc3OC)N2C1=O (stereo not given)	-17	4.1	-7	-6	9065	9	1
S=C(NN=Cc1ccccc1Cl)Nc1ccccc1	/	-2.5	91*	/	/	3	-5
C=CCN(C(=O)c1csnn1)C(C(=O)NC(C)(C)C)c1ccncc1 (stereo not given)	-26	-0.9	2	0	5137	-1	-2
Nn1c(SCC(=O)Nc2cc(C(F)(F)F)ccc2Cl)nncc1=O	-16	3.1	8	-8	/	2	10
CCOCc1cnc(C)nc1NCC(=O)c1c(C)[nH]c2cc(C)ccc12	-25	7.4	0	11	6323	11	6
COCCOC(=O)C1=C(C)NC(SCC(=O)NC(C)(C)C)=C(C#N)C1c1ccco1 (stereo not given)	4	3.3&9.6	1&8	-1	3917	-1&1	8&3

Compounds as they come; overall some 4.1% were active at least once.
